UUG fidelity – alters start codon recognition fidelity in yeast; hit rate 0.13% among 350,000; AID 602363; activity score, % at 18.7 µM; S. cerevisiae UUG-firefly luciferase reporter, luminescence/redox ratio;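 active = replicate mean at a twofold rise or more, about +100% in these data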;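 note: firefly luciferase made from a UUG start codon reports start codon fidelity; reporter light over untreated wells divided by growth signal over untreated wells; some hits fall short of that in this replicate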
CSC inhib – cancer stem cell inhibition; AID 2717; hit rate 1.1% among 300,000; cancer stem cell-like cells viability, luminescence; inhibition, % at 7.5 µM;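 active = mean at 75% or more and at least half the replicates too; inconclusive = mean and replicates disagree; tested in HMLE shEcad cells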;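 note: 0% = median of negative and 100% = median of positive control wells; the first replicate is given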
PABP FP inh – PABP-poly(A) binding inhibition. PABP-poly(A) RNA binding, fluorescence polarization. inhibition, % at 35 µM. P11940. hit rate 1% among 290,000. AID 2014;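 active = 50% or more with normal probe brightness, or confirmed in later tests; inconclusive = above 50% with abnormal brightness, or retests that disagree; inactive = below 50% or failed in later tests; about a fifth of its hits are not listed in these tables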;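 note: calls also rest on retests at 20 µM and on dose response follow-up; controls were probe without protein and protein plus probe with vehicle; some compounds called inactive have numbers as strong as hits; many hits fall short of the cut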
Target sequence (P11940 whole entry, looked up): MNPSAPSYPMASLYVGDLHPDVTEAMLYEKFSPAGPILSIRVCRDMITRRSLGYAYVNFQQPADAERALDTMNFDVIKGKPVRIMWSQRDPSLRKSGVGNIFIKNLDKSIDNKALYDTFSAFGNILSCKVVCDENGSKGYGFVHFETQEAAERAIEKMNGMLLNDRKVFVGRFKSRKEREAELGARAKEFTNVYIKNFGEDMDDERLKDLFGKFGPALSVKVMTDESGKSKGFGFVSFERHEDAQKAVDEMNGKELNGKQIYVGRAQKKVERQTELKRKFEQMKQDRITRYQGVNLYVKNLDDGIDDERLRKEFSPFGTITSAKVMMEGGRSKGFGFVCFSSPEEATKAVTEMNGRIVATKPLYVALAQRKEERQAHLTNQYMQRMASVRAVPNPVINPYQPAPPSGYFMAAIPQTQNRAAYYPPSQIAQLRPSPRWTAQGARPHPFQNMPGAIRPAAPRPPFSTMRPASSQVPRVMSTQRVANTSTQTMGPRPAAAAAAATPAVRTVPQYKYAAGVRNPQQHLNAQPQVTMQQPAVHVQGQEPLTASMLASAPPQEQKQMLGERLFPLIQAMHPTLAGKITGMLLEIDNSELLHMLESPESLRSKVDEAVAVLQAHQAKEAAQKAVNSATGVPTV
Rce1 inhib – inhibitors of yeast Ras-converting enzyme | yeast membranes, quenched prenylated peptide cleavage fluorescence | hit rate 0.27% among 290,000 | calls only | Q03530 | AID 2563;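 active = fall in fluorescence gain of 50% or more versus controls, with final raw signal at or below 3038400; inconclusive = same 50% fall but final raw signal above 3038400; inactive = fall in fluorescence gain under 50%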;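 note: plate controls were neutral control wells for no effect and wells lacking membranes for full effect; tested at 10 µM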
Target sequence (Q03530 whole entry, looked up): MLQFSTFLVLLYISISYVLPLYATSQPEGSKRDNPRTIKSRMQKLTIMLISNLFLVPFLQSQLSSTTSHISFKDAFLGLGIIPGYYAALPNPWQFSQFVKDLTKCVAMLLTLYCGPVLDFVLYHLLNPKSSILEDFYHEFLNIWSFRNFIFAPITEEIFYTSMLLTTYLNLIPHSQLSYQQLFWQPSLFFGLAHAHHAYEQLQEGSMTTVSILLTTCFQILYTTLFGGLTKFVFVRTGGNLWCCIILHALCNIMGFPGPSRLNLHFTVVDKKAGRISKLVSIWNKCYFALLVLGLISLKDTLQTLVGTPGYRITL
eIF4H inh – inhibitors of RNA binding by human eIF4H | AID 2012 | hit rate 0.94% among 290,000 | Q15056 | eIF4H fluorescence polarization binding assay | inhibition, % at 35 µM;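 active = 50% or more with normal probe brightness, or confirmed in later tests; inconclusive = above 50% with abnormal brightness, or retests that disagree; inactive = below 50% or failed in later tests; about a fifth of its hits are not listed in these tables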;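 note: calls also rest on retests at 20 µM and on dose response follow-up; 0% = protein and probe with vehicle and 100% = probe without protein; strong numbers were not always called active; many hits fall short of the cut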
MT1-MMP act inh – MT1-MMP (human) activation inhibition. P50281. HT1080 RFP-PRO-GFP cells, GFP/RFP ratio fluorescence, overnight; percent of plate control window, DMSO zero. GFP/RFP ratio change, % at 20 µM. hit rate 0.061% among 360,000. AID 651647;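 active = GFP/RFP ratio change of at least 30% with cell ATP level not reduced by more than half and red fluorescence within 50% of control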; note: strong numbers were not always called active
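Compound: 20 µM single dose, 1% DMSO / System: HT1080 RFP-PRO-GFP cells / Controls: DMSO and RFP-L50D-GFP cell wells / Read-out basis: GFP/RFP fluorescence ratio / Schedule: overnight compound exposure at 37 °C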
Env fusion inh – inhibitors of HIV Env-mediated cell fusion; AID 651610; inhibition, % at 12.3 µM; HeLa-JRFL Env/CEM21 cell fusion, luciferase; hit rate 1.1% among 360,000;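 active = mean replicate inhibition score of at least 50 and every replicate individually at or above 50; inconclusive = only one of the two criteria met; inactive = mean below 50 and not all replicates reaching 50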;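 note: 0% = plate neutral controls and 100% = maraviroc near 300 nM; one replicate is shown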
eIF4H inh retest – further read-out of eIF4H inh, marked with its call; inhibition, %; compound at 20 µM; confirmation average;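 mean of two retest wells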
PABP FP inh retest – further read-out of PABP FP inh, marked with its call; inhibition, %; compound at 20 µM; confirmation repeats;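 mean of two retest wells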
MT1-MMP act inh RFP – second read-out of MT1-MMP act inh, no call of its own (marks repeat the call); RFP signal change, %; measured here: RFP expression control read;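 0 = vehicle wells; hits needed this value within 50% of zero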
* hit, by the source's call; i = inactive; ? = inconclusive; / = not tested or not shown; & = joins results of further samples.

SMILES	UUG fidelity	CSC inhib	PABP FP inh	Rce1 inhib	eIF4H inh	MT1-MMP act inh	MT1-MMP act inh RFP	Env fusion inh	others
Cc1ccc(S(=O)(=O)N2CCCOC2CNC(=O)C(=O)NCc2ccco2)cc1 (stereo not given)	/	-1	9	i	0	3	8	0
CCC(c1nnc(SCC(=O)Nc2ccc(N3CCOCC3)cc2)n1Cc1ccccc1)N(C)C (stereo not given)	1	0	/	i	/	7	2	-9
Cc1snnc1C(=O)NC(=S)Nc1ccccc1	-24	-8	-6	i	-7	-2	4	-8
CSCC[C@@H](C(=O)NCCCCCCCCCCC(=O)N1CCNCC1)n1cc(CCO)nn1	-5	-10	/	/	/	-2	3	9
COCCn1c(C)cc(C(=O)COc2cccnc2[N+](=O)[O-])c1C	/	-3	3	i	?	-5	0	8
CCc1cc(Cn2nc(-c3ccccc3)cc2C(=O)NCC2CC2)on1	-6	-10	/	i	/	-2	0	-22
Cc1cc(C(=O)Nc2sc3c(c2C#N)CCC(C)C3)no1 (stereo not given)	-7	47	4	i	-10	-1	-3	-224
COc1ccc(CNS(=O)(=O)c2ccc(S(=O)(=O)NC3CC3)cc2)cc1	-12	0	6	i	-8	3	0	4
COCCN(C(=O)CSc1nnc(-c2ccccc2F)o1)c1c(N)n(CC(C)C)c(=O)[nH]c1=O	-15	-5	/	i	/	-3	2	-18
O=C(NCc1cccc(Cl)c1)c1ccc(CS(=O)Cc2ccc(Cl)cc2)o1 (stereo not given)	4	-21	-10	i	-4	4	-4	11
CCOC(=O)N1CCN(C(=O)CSc2nnc(-c3ccc(C)c(C)c3)o2)CC1	-3	10	-3	i	-4	-1	0	11
O=C(CCC(=O)OCc1cccc([N+](=O)[O-])c1)Nc1ccc(F)cc1	/	-4	4	i	-2	-2	0	-6
COc1c(C)cc(C(=O)C2CCCN(C(=O)CCc3scnc3C)C2)cc1C (stereo not given)	/	-5	3	i	-2	2	-18	23
COc1ccc(S(=O)(=O)NC(C)C(=O)NCc2ccncc2)cc1OC (stereo not given)	-5	-15	3	i	-2	2	1	0
N[C@@H](CO)c1nnc([C@H](Cc2ccc(O)cc2)NC(=O)C2CCNCC2)o1	0	5	-7	i	-3	1	6	-10
COc1ccccc1NC(=O)CN1C(=O)COc2ccc(S(=O)(=O)N3CCOCC3)cc21	1	4	/	i	/	-1	0	-10
Cc1ccc(CN2CCSc3ccc(C(=O)NCc4cccnc4)cc32)cc1	-19	52	4	i	-1	-2	-5	1
NC(=O)NC(=O)CN1C(=O)NC(c2ccccc2)(c2ccccc2)C1=O	-20	3	-5	i	7	3	7	0
O=C(CNC(=O)c1ccco1)NCC(=O)OCc1cccc(Cl)c1	/	-1	0	i	-3	-2	-1	17
FC(F)(F)Oc1ccccc1C(c1nnnn1C1CCCCC1)N1CCN(C/C=C/c2ccccc2)CC1 (stereo not given)	1	/	/	/	/	0	-5	4

Looked up one by one from above, two records:
SMILES	UUG fidelity	CSC inhib	PABP FP inh	Rce1 inhib	eIF4H inh	MT1-MMP act inh	MT1-MMP act inh RFP	Env fusion inh	others
O=C(CCC(=O)OCc1cccc([N+](=O)[O-])c1)Nc1ccc(F)cc1	/	-4	4	i	-2	-2	0	-6
COc1ccccc1NC(=O)CN1C(=O)COc2ccc(S(=O)(=O)N3CCOCC3)cc21	1	4	/	i	/	-1	0	-10

(more compounds)
SMILES	UUG fidelity	CSC inhib	PABP FP inh	Rce1 inhib	eIF4H inh	MT1-MMP act inh	MT1-MMP act inh RFP	Env fusion inh	others
O=C(Nc1ccc(F)cc1)c1ccccc1S(=O)(=O)c1ccccc1[N+](=O)[O-]	/	6	4	i	2	4	7	3
Nc1ccn(-c2ccc(Cl)cc2)c(=O)c1	/	/	-15	i	-6	-1	-1	/
O=C(COC(=O)CCN1C(=O)c2ccccc2C1=O)Nc1ccc(S(=O)(=O)N2CCCC2)cc1	-7	-14	-7	i	-6	-1	-2	-18
CCOC(=O)CSc1nc2ccsc2c(=O)[nH]1	-18	0	58*	i	86	-3	-4	0	eIF4H inh retest=-4;PABP FP inh retest=97*
Cc1ccc(N(C)C(=O)CCNC(=O)Cn2cnc3ccccc3c2=O)cc1C	-6	/	9	i	-6	3	4	-4
COc1cc2c(c(OC)c1OC)-c1c(cc(OC)c(OC)c1OC)C[C@](C)(O)[C@@H](C)C2	1	-3	2	i	-21	1	-2	-12
O=C(CSc1nnc2ccccn12)Nc1cccc(S(=O)(=O)N2CCOCC2)c1	-17	-5	-19	i	-9	4	4	20
O=C(NCc1ccco1)c1ccc2nc([C@@H]3O[C@H](CO)[C@H](O)[C@H](O)[C@H]3O)[nH]c2c1	-2	/	/	/	/	-2	4	16
COc1ccc(/C=N/NC(=O)c2ccn[nH]2)cc1CSc1ccccn1	-17	-2	-4	i	-2	-2	5	-16
Cc1cc(NC(=O)CCC(=O)N(Cc2ccco2)C2(C(=O)NC3CCCCC3)CCCC(C)C2)no1 (stereo not given)	2	/	2	i	3	-6	-2	34
CCOC(=O)C1=CNS(=O)(=O)NC1c1ccc(OC(C)=O)cc1 (stereo not given)	-14	/	/	/	/	1	5	-2
O=C1NCC(O)=C1C=NCCCO	/	10	8	i	6	5	2	-13
C[C@H]1CN([C@@H](C)CO)C(=O)Cc2cc(NC(=O)CCC(F)(F)F)ccc2O[C@H]1CN(C)C(=O)Nc1ccc(F)cc1	-6&-2	-16	/	/	/	-2	-2	-34
Cc1[nH]c2ccc(C(=O)N3CCN(Cc4ccccc4)CC3)cc2c1C	-34	-12	4	i	0	4	4	2
CCCCCn1c(=O)[nH]c2cc(C(=O)NCCCN(CC)CC)ccc2c1=O	7	29	-7	i	-6	1	6	-5
COc1ccc(-c2c(NC(C)=O)n(C)c3ccccc3c2=O)cc1	-13	-7	4	i	-9	3	8	-65
COc1ccc(C2/C=C\CN(C(=O)OCc3ccccc3)CC(=O)N2Cc2ccc(F)cc2)cc1 (stereo not given)	4	-8	1	i	-15	2	-5	37
CSc1nc(S(C)(=O)=O)nc2[nH]c(=O)[nH]c12	-16	/	/	/	/	-7	2	-116
COc1ccc(S(=O)(=O)n2cnc3cc(C)c(C)cc32)cc1	-13	-11	14	i	4	8	1	/
CCOc1ccc(NS(=O)(=O)c2ccc(C(=O)NCCCN3CCCC3=O)cc2)cc1	5	4	-1	i	-8	-6	-1	6
NC(=O)C1CCN(c2nc(-c3ccccc3N)cs2)CC1	-14	-21	/	/	/	2	2	-13
CC(C)CC(=O)NC(=S)Nc1ccc(N2CCCC2)c(Cl)c1	-24	-4	8	i	10	0	-5	2
Cc1ccc(C)c(OCCC(=O)OCC(=O)NC(=O)NC2CCCCC2)c1	-5	/	/	/	/	-9	1	15
COc1ccccc1N1CCN(C(=O)c2ccc(Cl)c(S(=O)(=O)N3CCOCC3)c2)CC1	-8	-8	10	i	0	2	0	25
CCCCOP(=O)(OCCCC)C(O)c1ccc(N(C)C)cc1 (stereo not given)	5	-3	0	i	-8	2	-2	3
COc1ccc(NC2=CC(=S)NC(C)(C)C2)cc1	-38	1	5	i	68*	-15	5	0	eIF4H inh retest=63*;PABP FP inh retest=48
CCOc1ccccc1C(=O)Nc1ccc(S(=O)(=O)N2CCOCC2)cc1	5	/	9	i	8	4	-3	/
CN1C(=O)/C(=C/c2cn(CC(=O)N3CCCCC3)c3ccccc23)NC1=S	-19	-1	-5	i	0	-79	0	12
COCCCNC(=S)N/N=C/c1ccc(N(C)C)cc1Cl	-26	2	-6	i	-3	2	-3	7
Cc1ccc(S(=O)(=O)N2CCN(Cc3cc(=O)n4ccccc4n3)CC2)c(C)c1	-14	6	/	/	/	-6	5	-10
COc1cc2[nH]c(=S)n(Cc3cccs3)c(=O)c2cc1OC	-14	-19	0	i	9	1	-4	5
CCOc1ccc(S(=O)(=O)N2CCC(C(=O)NCc3ccco3)CC2)cc1	-11	-16	5	i	-10	2	-2	-11
COc1cccc(-c2nc(NCc3ccccc3)c3ccccc3n2)c1O	2	11	1	i	-12	3	0	7
CCOC(=O)c1c(NC(=O)CN2CCN(C(=O)c3ccco3)CC2)sc(C)c1C	-7	16	0	i	0	-4	-1	18
CCn1c(=O)cc(O)c2ccccc21	-39	-11	0	i	5	-1	5	/
CCOc1ccc(C(=O)Nc2cccc(-c3ccc(N4CCOCC4)nn3)c2)cc1OCC	-20	/	/	i	/	6	3	-14
CC1(C)CC(NC(=O)COc2ccccc2Cl)CC(C)(C)N1	-28	-7	2	i	-5	3	4	-14
Cc1ccccc1N(C(=O)c1snc(C(N)=O)c1N)C(C(=O)NCC1CCCO1)c1ccc(N(C)C)cc1 (stereo not given)	-8	-5	10	i	-11	-8	-6	-6
C/C(=N\N1CCN(C2c3ccccc3-c3ccccc32)CC1)c1ccncc1	-22	-18	-10	i	4	-12	-12	/
Cn1cc(/C=C2\SC(=O)N(c3ccccc3)C2=O)c2ccccc21	-5	-9	-24	i	-15	-25	4	-32

Already shown: an excerpt of the list.
SMILES	UUG fidelity	CSC inhib	PABP FP inh	Rce1 inhib	eIF4H inh	MT1-MMP act inh	MT1-MMP act inh RFP	Env fusion inh	others
CC(C)CC(=O)NC(=S)Nc1ccc(N2CCCC2)c(Cl)c1	-24	-4	8	i	10	0	-5	2
Cc1ccc(C)c(OCCC(=O)OCC(=O)NC(=O)NC2CCCCC2)c1	-5	/	/	/	/	-9	1	15
COc1ccccc1N1CCN(C(=O)c2ccc(Cl)c(S(=O)(=O)N3CCOCC3)c2)CC1	-8	-8	10	i	0	2	0	25
CCCCOP(=O)(OCCCC)C(O)c1ccc(N(C)C)cc1 (stereo not given)	5	-3	0	i	-8	2	-2	3
COc1ccc(NC2=CC(=S)NC(C)(C)C2)cc1	-38	1	5	i	68*	-15	5	0	eIF4H inh retest=63*;PABP FP inh retest=48
CCOc1ccccc1C(=O)Nc1ccc(S(=O)(=O)N2CCOCC2)cc1	5	/	9	i	8	4	-3	/
CN1C(=O)/C(=C/c2cn(CC(=O)N3CCCCC3)c3ccccc23)NC1=S	-19	-1	-5	i	0	-79	0	12

The list continues.
SMILES	UUG fidelity	CSC inhib	PABP FP inh	Rce1 inhib	eIF4H inh	MT1-MMP act inh	MT1-MMP act inh RFP	Env fusion inh	others
Cc1cc(C)nc(NS(=O)(=O)c2ccc(NC(=O)c3cc(-c4ccccc4)nc4ccccc34)cc2)n1	-16	11	-6	i	0	8	-8	/
C#Cc1cccc(-n2nnc(C(=O)OC)c2-c2ccccc2)c1	-5	-18	12	i	-2	0	-4	3
COc1ccc(C(=O)NCC(=O)N2CCc3ccccc3C2)cc1	/	-2	-9	i	6	0	-1	0
CCOc1ccc(C(=S)NC2CCCCC2)cc1	/	-5	-1	i	-1	-1	-5	-49

Screening data: PubChem BioAssay, several laboratories

The list is partial (hit frequency here may not be typical).
